# NPYLR7 agonist: agonists of mosquito NPYLR7 receptor, primary screen, cell-based, Aedes aegypti, calcium fluorescence, mosquito biting behavior; HEK293T NPYLR7/Galpha15, GCaMP6s calcium fluorescence; activation, % at 10 µM; hit rate 0.15% among 270,000; in the data active = activation above about 40%;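 note: 0% = vehicle and 100% = reference agonist at the receptor; some compounds past the cut are filed as inactive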
# NPYLR7 agonist max-min: also measured in NPYLR7 agonist; calls as there; activation, %; measured here: Max-Min RFU normalised activation; some inactives read as strong as hits;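 span of the calcium signal over five minutes; 0% = vehicle and 100% = native peptide agonist; compound fluorescence can raise it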
# * marks the source's active call; other numbers are inactive results.
# A first look, six compounds:
compound | NPYLR7 agonist | NPYLR7 agonist max-min
CCCCC(CC)C(=O)N(Cc1cccc(OS(=O)(=O)c2cccc(C(F)(F)F)c2)c1)Cc1ccco1 (stereo not drawn) | 12 | 11
O=C(Nc1ccc(N2CCOCC2)cn1)C1CC2CCCC(C1)C2=O (stereo not drawn) | 4 | 5
CCc1nc(CN2CC[C@@H](c3ccc4c(c3)OCO4)[C@H](O)C2)c(C)[nH]1 | 4 | 1
CC(=O)Oc1ccc(/C=C2N=C(/C=C/c3ccc(Cl)cc3Cl)OC\2=O)cc1 | -6 | -13
Cc1ccc(N2C(=O)c3cccc4cccc(c34)C2=O)cc1 | -6 | -8
CCc1c(C)nc2nncn2c1NCc1ccco1 | 2 | -1

# Results, previewed entries included:
compound | NPYLR7 agonist | NPYLR7 agonist max-min
CCCCC(CC)C(=O)N(Cc1cccc(OS(=O)(=O)c2cccc(C(F)(F)F)c2)c1)Cc1ccco1 (stereo not drawn) | 12 | 11
O=C(Nc1ccc(N2CCOCC2)cn1)C1CC2CCCC(C1)C2=O (stereo not drawn) | 4 | 5
CCc1nc(CN2CC[C@@H](c3ccc4c(c3)OCO4)[C@H](O)C2)c(C)[nH]1 | 4 | 1
CC(=O)Oc1ccc(/C=C2N=C(/C=C/c3ccc(Cl)cc3Cl)OC\2=O)cc1 | -6 | -13
Cc1ccc(N2C(=O)c3cccc4cccc(c34)C2=O)cc1 | -6 | -8
CCc1c(C)nc2nncn2c1NCc1ccco1 | 2 | -1
CCn1c(CC2CCN(C(=O)c3csc(C(C)C)n3)CC2)nn(C)c1=O | 3 | 2
CCOC(=O)N1CCN(C2CCCNC2)CC1 (stereo not drawn) | 5 | 2
COc1ccc(CN2C(=O)C(=O)c3cc(OC(F)(F)F)ccc32)cc1 | -9 | -13
Cc1nn(-c2ccc(S(N)(=O)=O)cn2)c2c1CCCC2 | -3 | -1
COc1ccc(OC)c(C(=O)N(Cc2ccc(OCc3ccccn3)cc2)[C@H]2CCCCNC2=O)c1 | 15 | -1
COc1ccc(CNC2CN(C(=O)OC(C)(C)C)C2)c(OC)c1OC | 1 | 2
Cc1nn(CC(=O)N2CCNCC2C(=O)NCc2ccccn2)c(C)c1C (stereo not drawn) | 7 | 4
Cc1cc(C(=O)N2CCCC(Nc3ccccc3)C2)c2ccc(F)cc2n1 (stereo not drawn) | 3 | -2
COc1ccc(CNC(=O)c2ccc(-c3ccc(OC)c(OC)c3OC)s2)c(OC)c1 | -10 | 0

# Single values from the list:
# Entry of COc1ccc(CN2C(=O)C(=O)c3cc(OC(F)(F)F)ccc32)cc1 in NPYLR7 agonist: -9
# Entry of Cc1cc(C(=O)N2CCCC(Nc3ccccc3)C2)c2ccc(F)cc2n1 (stereo not drawn) in NPYLR7 agonist: 3
# Entry of CCc1c(C)nc2nncn2c1NCc1ccco1 in NPYLR7 agonist: 2
# Entry of Cc1ccc(N2C(=O)c3cccc4cccc(c34)C2=O)cc1 in NPYLR7 agonist: -6
# Entry of COc1ccc(CNC(=O)c2ccc(-c3ccc(OC)c(OC)c3OC)s2)c(OC)c1 in NPYLR7 agonist: -10

# New compounds follow:
compound | NPYLR7 agonist | NPYLR7 agonist max-min
Cc1onc(-c2ccccc2)c1C(=O)Nc1sc2c(c1C(N)=O)CCCCC2 | 1 | -2
Cc1c(NC(=S)NC(=O)c2ccccc2)c(=O)n(-c2ccccc2)n1C | -3 | -7
CSc1cccc(NC(=O)CSc2ncc(S(=O)(=O)c3ccc(C)c(Cl)c3)c(=O)[nH]2)c1 | 7 | 5
FC(F)(F)c1cccc(N2CCN(C3CCCN(C4Cc5ccccc5C4)C3)CC2)c1 (stereo not drawn) | 6 | 0
CC1=NN(C(=O)c2ccccc2[N+](=O)[O-])C(O)(C(F)(F)F)C1 (stereo not drawn) | 2 | 0
COCCNC(=O)Cn1c(CO)cnc1SCc1cccc2ccccc12 | 1 | -1
CCc1nc(CN(C)Cc2cccc(C(=O)Nc3nccn3C)c2)no1 | -7 | -12
Cc1onc(-c2ccccc2Cl)c1C(=O)N(C)C1CCCCC1 | 3 | 4
CC1(C)[C@H]2CC=C(CN3CCC(CCC(=O)N4CCOCC4)CC3)[C@@H]1C2 | 7 | 4
Nc1ccccc1CC(=O)Nc1ccccc1 | 0 | 0
O=C1CC(NC2CCSCC2)CN1Cc1ccccc1C(F)(F)F (stereo not drawn) | 14 | 9
Cc1ccc2oc(-c3ccc(NC(=O)c4ccc(C(C)(C)C)cc4)cc3O)nc2c1 | -4 | -7
COc1ccc(C(=O)NC(NC(=O)c2ccc(OC)cc2)c2ccc(OC)c(OC)c2)cc1 | 2 | -2
CCN(CC)C(=O)CSc1nnc(Cc2ccccc2)n1-c1ccccc1C | 19 | 17
CC(C)(C)c1cc(N2CCOCC2)n2ncc(-c3ccccc3Cl)c2n1 | 8 | 4
CCN(CC)C(=O)Oc1ccc2c(ccn2C)c1NC(=O)C1CCCCC1 | -7 | -15
CN(C)c1ccc(C2=NOC(CN(Cc3cccc(F)c3)C(=O)c3cccs3)C2)cc1 (stereo not drawn) | -1 | 7
CCc1nc2ccc(C(=O)NC3CCN(Cc4ccccc4)CC3)cn2c1N(C)Cc1ccc(N(C)C)cc1 | 0 | -8
O=C(CNC(=O)c1ccccc1O)N=Nc1c(O)n(CCc2ccccc2)c2ccccc12 | 0 | -8
C=CCNC(=O)c1cncn1-c1cccc(-c2ccccc2C(F)(F)F)c1 | -2 | -4
Cc1cc[n+](C(C)C(=O)c2ccc(-c3ccccc3)cc2)cc1 (stereo not drawn) | -14 | -23
CN(Cc1ccccc1)C(=O)CCC1CCN(C(=O)CC2=CCCCC2)CC1 | 10 | 4
O=C(c1cc2n(n1)CCN(Cc1cccc(Cl)c1)C2=O)N1CCC2(CC1)OCCO2 | -2 | 0
CCOC(=O)C1(NC(=O)CCOC(C)C)Cc2ccccc2C1 | 6 | 4
COc1cn(CC(=O)Nc2cccc(C)c2)c(CN2CCCCCC2)cc1=O | 1 | -3
C=CCNC(=O)CN1CN(c2ccccc2)C2(CCN(C(=O)c3cccs3)CC2)C1=O | 7 | 10
COCc1oc2ccc(NS(=O)(=O)c3ccc(C)cc3)cc2c1C(=O)OC | -8 | -13
C[C@H](NC(=O)Nc1ccc(I)cc1)C(=O)N1CCC(C(=O)N2CCCCC2)CC1 | 15 | 21
COc1ccc(CCN(C)C(=O)/C=C/c2ccc(C)cc2)cc1OC | -9 | -13
CCOc1ccc(-n2nnc3c(=O)n(Cc4ccc(C(F)(F)F)cc4)cnc32)cc1 | 9 | 12
CC1Cc2cc(-c3cc(CC(=O)NC4=NCCS4)no3)ccc2O1 (stereo not drawn) | 8 | 7
COc1ccccc1NC(=O)Cn1c(C)cc(C)c(C#N)c1=O | 3 | -9
CC1c2cccn2CCN1S(=O)(=O)c1c(F)cc(F)cc1Br (stereo not drawn) | 0 | -4
O=C(NCCc1ccco1)c1ccc2c(c1)OCO2 | -5 | -4
CCc1c(C)nn(-c2ccc(C(=O)NCCc3cccnc3)cc2)c1C | 0 | 0
CCOC(=O)Nc1cccc(NCC(=O)Nc2cc(F)ccc2F)c1C | 7 | 3
Cc1cccc(NCC2CCCN2C(=O)CCNC(=O)C(C)(C)C)n1 (stereo not drawn) | 7 | 3
CCSCCOC(=O)C1=C(C)N(C)C(=O)NC1c1cccc([N+](=O)[O-])c1 (stereo not drawn) | -2 | -10
O=C(Cc1ccccc1Cl)NCCCn1nc(-c2ccc(F)cc2)ccc1=O | -1 | -2
CC(NC(=O)c1ccc(N2CCCCC2=O)cc1)C1CC2CCC1C2 (stereo not drawn) | 3 | 2
CCCN(CC1CC1)C(=O)CSc1nc2cc(Cl)ccc2c(=O)n1CC1CCCO1 (stereo not drawn) | 12 | 5
O=C(NCC1CCCCC1O)C(=O)Nc1cccc(Cl)c1Cl (stereo not drawn) | -2 | -3
COc1ccc(N2C(=O)CSC2c2cccs2)cc1 (stereo not drawn) | -12 | -16
COc1ccc(-n2c(SCCCC#N)nc3ccccc3c2=O)cc1Cl | 5 | 9
CCN(CC1CCOCC1)C(=O)CCc1nc(-c2ccccc2C)no1 | 3 | 1

# New compounds follow:
# Below each SMILES – NPYLR7 agonist, NPYLR7 agonist max-min
N#Cc1ccc(S(=O)(=O)N2CCN(Cc3cc(=O)c(OCc4ccccc4Cl)co3)CC2)c(Cl)c1
    0, -2
CCC(=O)N1CCCN(c2nc(Cc3ccccc3)nc3onc(-c4ccc(C(C)(C)C)cc4)c23)CC1
    -8, -1
Cc1cc(=O)n(CC(=O)N2CCCc3ccccc32)c(-n2nc(C)cc2C)n1
    8, 5
CC(C)N(Cc1nccn1C)C(=O)CC(c1ccccc1)c1ccccc1F (stereo not drawn)
    7, 3
Cc1nc2n(n1)C(=O)C(C(c1cccs1)N1CCN(C)CC1)S2 (stereo not drawn)
    -9, -7
CC(C)(C)c1nnc(Nc2ccccc2)[nH]c1=O
    2, 0
CC(C)C(N)c1csc(Nc2cc(Oc3ccccc3)ncn2)n1 (stereo not drawn)
    0, -7
COc1cccc([C@@H]2CCN(C3CCN(C(=O)c4ccncc4)CC3)C[C@H]2O)c1
    -3, -6
CC(C)Cn1c(SCC(=O)Nc2ccc3c(c2)CCC3)nc(O)cc1=O
    4, -2
Cc1ccc(-n2nnc3c(N4CCN(C(=O)CCc5ccccc5)CC4)ncnc32)cc1
    -3, -11
CN(C)CCc1cc2c(c3c1ccc1ccccc13)OCO2
    2, 0
COc1ccc(S(=O)(=O)Oc2cccc(CN(C(C)=O)C3CC3)c2)cc1
    -3, 4
Cc1cccc(-n2c(SCc3cccc(C#N)c3)nnc2C2CC2)c1
    1, 12
COC(=O)c1c(OCc2ccsc2)cc(=O)n2c1CCN(C(=O)C1Cc3ccccc3O1)CC2 (stereo not drawn)
    4, 2
Cc1noc(C)c1NC(=O)N1CCC(n2cc(C(C)(C)C)nn2)CC1
    5, -9
CCc1nccc(-c2nccn2CCc2nc(-c3ccccn3)no2)n1
    1, -5
Cc1ccc(-c2noc(CCN(Cc3ccccc3)CC(O)COCc3ccco3)n2)cc1Cl (stereo not drawn)
    8, 7
S=c1[nH]ccn1-c1ccc(Cl)cc1
    -2, -3
NC(=O)c1nc(-c2ccc(Cl)cc2Cl)nc2c1[nH]c(=O)n2-c1ccc2c(c1)OCO2
    -2, -3
O=C(CCc1nc(-c2ccc(F)cc2)no1)NCc1ccco1
    21, 7
Cc1nnc(NC(=O)CSc2nnc(-c3ccc(=O)n(C)c3)n2C)s1
    3, 1
CCCCNC(=O)CSCc1cccc(C(=O)O)c1
    -1, -2
CCC(C)(N)c1nc(N)cc(=O)[nH]1 (stereo not drawn)
    10, 5
COc1ccccc1NC(=O)N(Cc1ccc(F)cc1F)CC1CC(c2ccccc2Cl)=NO1 (stereo not drawn)
    14, 19
CCc1cc(CN(C)C2CCN(C(=O)c3ccccn3)CC2)on1
    2, 0
O=C(CSc1ccc(NC(=O)c2ccccc2F)nn1)NCC1CCCO1 (stereo not drawn)
    -6, -12
COc1cccc(C2c3cccn3CCCN2Cc2ccoc2)c1 (stereo not drawn)
    13, 18
CCOc1ccc(C(C2Sc3nc(C)nn3C2=O)N2CCC3(CC2)OCCO3)cc1 (stereo not drawn)
    2, 0
O=C(CCl)NC(=O)NCc1cccs1
    -2, -6
O=C(COc1ccc(F)cc1Cl)NC(=O)c1ccccc1
    2, 1
CCCCOc1ccc(C(=O)Oc2ccc(-c3nc4ccc(Br)cn4c3NC3CCCCC3)cc2OC)cc1
    12, 14
O=c1cc(-c2ccccc2)[nH]n1-c1ccccc1Cl
    -1, -1
Cc1ccc(N2C(=O)CSC2c2ccc(NC(=O)C3CC3)cc2)cc1F (stereo not drawn)
    31, 30
NC(=O)c1ccccc1OCc1nnc(-c2cccs2)o1
    12, 12
COc1ccc(CNC2(CN3CCOCC3)CCCCC2)cc1OC
    -3, -9
O=C(NC(c1ccc(-c2ccccc2)cc1)c1cnccn1)C1CCN(CCCOc2ccccc2)CC1 (stereo not drawn)
    -1, 4
CCC(C)NC(=O)c1cc(NC(=O)Nc2ccc(Cl)cc2)ccc1N1CCCCC1 (stereo not drawn)
    25, 27
CCN(CC)CCCC(C)NC(=O)c1cc(-c2cccn2C)nn1-c1cccc([N+](=O)[O-])c1 (stereo not drawn)
    2, 15
N#CCCN(CCc1ccccn1)C(=O)CN1C(=O)C2CCCCN2C(=O)c2ccccc21 (stereo not drawn)
    -2, 7
c1ccc(CC2CN(Cc3cccn3-c3ccccn3)CCO2)cc1 (stereo not drawn)
    5, 3
O=S(=O)(c1ccc(SCc2cccc(F)c2)nc1)N1CCCC1
    6, -1
CCCCC(=O)Nc1cc(-c2cn3nc(OC)ccc3n2)ccc1C
    1, -4
COc1ccc(S(=O)(=O)N2CCOCC2)cc1NC(=O)C(C)(C)c1ccccc1
    0, -2
Cc1nc(NCCNC(=O)Nc2ccc(Cl)c(C(F)(F)F)c2)cc(-n2cccn2)n1
    -5, -8
CC(=O)N1CCCN(C(=O)c2ccc3nc(Cc4ccccc4F)oc3c2)CC1
    18, 11
Cc1cc(C)c(S(=O)(=O)Nc2ccccc2C(=O)NC(C)c2ccccc2)c(C)c1 (stereo not drawn)
    -1, 5
CC(C)N(C(=O)c1ccc(-c2cccc(C(F)(F)F)c2)s1)C(C)C
    -16, -11
CCc1nnc(Cn2cc(-c3ccc(OC)c(OC)c3)nn2)s1
    -5, -8
CC(C)N(CC(=O)Nc1cc(-c2ccccc2)nn1-c1ccccc1Cl)C(=O)c1ccc(C(C)(C)C)cc1
    12, 15
Nc1cc(-c2ccc(Cl)c(Cl)c2)nn1-c1ccc(C(=O)Nc2ccc(-c3ccccc3)cc2)cc1
    -1, -7
CCOC(=O)c1ccc(Cn2cc3ncccc3c2O)o1
    1, -2
CCc1cccc(NC(=O)CNc2ccc(C)c(N3CCOC3=O)c2)c1
    4, 1
CCOC(=O)C1CCCN(CC(=O)N2N=C(c3cc(C)ccc3C)CC2c2ccccc2F)C1 (stereo not drawn)
    15, 15
COc1ccc(-c2cc3c(c(OC)c2)OCCNC3)nn1
    3, 2
O=C(Nc1ccc(S(=O)(=O)Nc2ccccc2Cl)c(Cl)c1)c1ccccn1
    -1, -7

# Only part of the results is shown. The share of hits here may be higher or lower than overall.
